TsaE inh: qHTS Assay for Inhibitors of YjeE | tRNA threonylcarbamoyladenosine biosynthesis protein TsaE (Escherichia coli (strain … | purified YjeE, fluorescence polarisation of a bound ADP probe | Potency, µM | 71,000 compounds, 0.05% hits | AID 605, 2007; active = well fitted falling curve; inconclusive = weaker or top-dose-only fall, or a rising curve; inactive = flat or poorly fitted curve;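 note: top concentration of the series not given in the record; excess ADP was the control for the full effect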
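Purified YjeE (10 uM) with BODIPY Texas Red-labeled ADP probe (2 uM); compounds pin-transferred, 15 min at room temperature. Binding inhibition read as decreased fluorescence polarization; ADP titration as control.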
PK Bst: Pyruvate Kinase; partly purified Bacillus stearothermophilus pyruvate kinase, luminescence ATP production; ribose 5-phosphate activator present at AC10; Potency, µM; 51,000 compounds, 1.2% hits; AID 361, 2006; in the data active means potency below about 11 µM; inconclusive means mostly about 12 µM to 25 µM; inactive means weaker than that;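 the screen sought inhibitors and activators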;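 note: potency is the fitted concentration of half-maximal effect; scaled between full activation by ribose 5 phosphate and full inhibition by luteolin; about four in five hits inhibit and the cells do not say which; series up to 57 µM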
The depositor's hits bear a star; i = inactive; u = inconclusive; x = not tested or not shown. This is a subset (hit frequency here may not be typical).

compound,TsaE inh,PK Bst
CC(C)n1nnnc1SCC(=O)N1CCOCC1,i,>57
O=C(CN1CCOCC1)Nc1nc(-c2ccc3c(c2)CCN3S(=O)(=O)c2ccccc2)cs1,i,>57
COc1ccc2c(c1)C1(Nc3ccccc3C(=O)N1c1ccccc1)C(=O)N2 (centres undefined),i,x
COc1ccc(-c2nc(CN3CCC(C(=O)NC(C)C)CC3)c(C)o2)cc1OC,i,>57
O=[N+]([O-])c1ccc(CSc2ncnc3c2ncn3[C@@H]2O[C@@H](CO)[C@@H](O)[C@H]2O)cc1,i,x
O=C(Cn1c(=O)n(-c2cccc(Cl)c2)c(=O)n1CC(=O)N1CCCCC1)N1CCCCC1,i,>57
Cc1cc(-c2ccccc2)nc(N2CCC(C(=O)NC(C)C)CC2)n1,i,>57
O=S(=O)(c1ccc(F)cc1)N1CN(Cc2ccco2)c2nc3ccccc3nc21,i,>57
O=C(CSc1ncnc2ccccc12)Nc1ccc(N2CCOCC2)cc1,i,>57
Cn1c(=O)c(-c2cc(F)cc(F)c2)nc2cnc(Oc3cccc(Cl)c3)nc21,i,x
O=C(Nc1ccccc1C(=O)NCc1ccco1)c1ccco1,i,>57
CSc1ccccc1NC(=O)CSc1nnnn1-c1ccccc1SC,i,u
CCc1cccc(C)c1NC(=O)C1=C(C(=O)O)CCCC1,i,x
CCOC(=O)N1CCN(C(=O)CSc2nnc(-c3cccs3)o2)CC1,i,x
Cc1ccc2nc3c(cc2c1)c(NC(=O)c1cccnc1)nn3C,i,i
Cc1cc(C)nc(N2CCCC(C(=O)NCCc3ccccc3F)C2)n1 (centres undefined),i,3.2*
COC(=O)c1cn(C(C)C(=O)NCc2ccco2)c2ccccc12 (centres undefined),i,>57
O=C(c1cc2c(=O)oc3ccccc3c2s1)N1CCN(c2ccccn2)CC1,i,>57
Cc1ccc(OCCOCCn2ccnc2)c(Br)c1,i,x
CN(C)c1ccc(-c2nn3c(-c4cccnc4)nnc3s2)cc1,i,x
Cc1cc(C)c2nc(N3CCC(C(=O)N4CCN(c5ncccn5)CC4)CC3)sc2c1,i,>57
COc1ccc(NC(=O)c2ccc(S(=O)(=O)N3CCOCC3)cc2)c(OC)c1,i,>57
COC(=O)c1cc(OC)c(OC)cc1NC(=O)c1c(C)noc1C,i,>57
c1ccc(OCc2nn3c(-c4n[nH]c5c4CCC5)nnc3s2)cc1,i,>57
c1ccc(Cn2nnnc2C(c2cccnc2)N2CCN(c3ccccc3)CC2)cc1 (centres undefined),i,>57
N#Cc1ccccc1-c1ccc2ncnc(N3CCNCC3)c2c1,i,x
O=c1c(CCc2ccccc2)nc2cnc(N3CCOCC3)nc2n1-c1ccccc1,i,x
OCCNCCCCCOc1ccc(F)cc1,i,x
O=C1c2sc3nc4c(c(=O)n3c2C(=O)N1c1ccccc1)CCC4,u,>57
CC(C)(C)CC(C)(C)c1ccc(OCOCCOCCO)c(Cc2cc(C(C)(C)CC(C)(C)C)cc(Cc3cc(C(C)(C)CC(C)(C)C)ccc3OCOCCOCCO)c2OCOCCOCCO)c1,i,x
Cc1ccccc1NC(=O)c1cc(S(=O)(=O)N2CCOCC2)ccc1F,i,>57
CS(=O)(=O)N(CC(=O)NCc1cccnc1)Cc1ccc(Cl)cc1,i,>57
Cc1ccc(S(=O)(=O)NCCCC(=O)C=[N+]=[N-])cc1,i,>57
N#C/C(=C\c1ccc(O)c(O)c1)C(=O)NCCCNC(=O)/C(C#N)=C/c1ccc(O)c(O)c1,i,x
Cc1ccc(SCCC(=O)N2CCC(C(N)=O)CC2)cc1,i,>57
CC(C)n1c(SCC(=O)N2c3ccccc3Sc3ccccc32)nc2c1c(=O)n(C)c(=O)n2C,i,>57

For convenience, some entries already given:
compound,TsaE inh,PK Bst
c1ccc(Cn2nnnc2C(c2cccnc2)N2CCN(c3ccccc3)CC2)cc1 (centres undefined),i,>57
N#Cc1ccccc1-c1ccc2ncnc(N3CCNCC3)c2c1,i,x

(more compounds)
compound,TsaE inh,PK Bst
O=C(Oc1ccccc1)N1CCC2(CCCN(c3ccccn3)C2)CC1,i,x
Cc1csc(NC(=O)c2cccc(S(=O)(=O)N3CCCCC3)c2)n1,i,>57
Cc1cc2ccccc2n1CCNC(=O)c1ccc(S(=O)(=O)N2CCOCC2)cc1,i,u
CCOC(=O)C1CCCN(c2c(NCCCN(C)c3ccccc3)c(=O)c2=O)C1 (centres undefined),i,x
COCc1nnc(NC(=O)CSc2ccccc2)s1,i,>57
Cc1nc2ccccn2c1/C(O)=C1\C(=O)C(=O)N(CCN2CCOCC2)C1c1cccnc1 (centres undefined),i,>57
CCC(NC(=O)Nc1ncccc1C)(C(F)(F)F)C(F)(F)F,x,>26
Cc1nc2ccccc2nc1OCC(=O)N1CCN(c2ccccc2)CC1,i,>57
Fc1ccc(-c2nc3n(n2)Cc2ccccc2-3)cc1,i,2.5*
O=C(CCCNS(=O)(=O)c1cccs1)N1CCN(c2ccc(F)cc2)CC1,i,>57
COc1cccc(C2C(C(=O)c3ccc(C)o3)=C(O)C(=O)N2CCCN(C)C)c1 (centres undefined),i,x
CCc1nc2ccccc2n(CCOCCOCCn2c(=O)c(CC)nc3ccccc32)c1=O,i,>57
CCN(CC)CCOC(=O)[C@@H](c1ccccc1)C1CCCCC1,i,x
CC(C)C(=O)Nc1nc2c(ncn2C2CC(O)C(CO)O2)c(=O)[nH]1 (centres undefined),i,x
Cn1c(=O)oc2cc(S(=O)(=O)N3CCC(N4CCCCC4)CC3)ccc21,i,x
CCOCCSC1=C(C#N)C(c2cccs2)C(C(C)=O)=C(C)N1 (centres undefined),i,>57
CC(C)=CC/C=C1\CCC(C(=O)O)C(C(=O)O)C1 (centres undefined),i,x
CCCCn1c(NC(=O)c2ccccc2Cl)c(C#N)c2nc3ccccc3nc21,i,>57
Cc1ccc(N2C(=O)CSC2c2cccs2)cc1 (centres undefined),i,>57
CC(C)(C)NS(=O)(=O)c1ccc(CCC(=O)O)cc1,i,>57
Cc1oc(C(=O)O)cc1CSCc1cc(C(=O)O)c(C)o1,i,x
CN(C)c1nc(N2CCOCC2)nc(N(c2ccccc2)c2ccccc2)n1,i,>57
COCCn1c(SCC(=O)NCc2ccco2)nc2cccnc21,i,>57
CCCn1nnnc1SCC(=O)Nc1ccc(F)cc1,i,>57
Cc1cccc(NC(=O)c2cc3ccccc3o2)c1,i,u
Cc1noc(C)c1-c1cc(N2CCNCC2)ncn1,i,x
COc1ccc(CN2CCNC(=O)C2CC(=O)O)cc1OC (centres undefined),i,x
CC(NC(=O)c1ccco1)C(c1cccs1)N1CCN(c2ccccc2F)CC1 (centres undefined),i,>57
CC(C)(C)C1CCc2c(sc3c2C(=O)NC(c2ccco2)N3)C1 (centres undefined),i,x
Oc1ccc(C=Nc2ccc(N3CCOCC3)cc2)c(O)c1,i,x
CCOC(=O)Cn1nnnc1C(C(C)C)N(Cc1cc2c(C)cc(C)cc2[nH]c1=O)C1CCCC1 (centres undefined),i,>57
C=CCn1cc(C(=O)OC)c(=O)c2cc(S(=O)(=O)N3CCC(C)CC3)ccc21,i,>57
Cc1noc(C)c1CSCC(=O)OCC(=O)NC1CCCCC1,i,>57
CCOC(=O)C1Cc2c([nH]c3ccccc23)C(C)N1 (centres undefined),x,>26
COc1ccc(CNC(=O)CSc2ncn[nH]2)cc1,i,>57
Cc1cc(C(=O)NCc2ccccc2F)cs1,i,>57
CCOc1ccc(-c2nc(C#N)c(N3CCN(C)CC3)o2)cc1,i,u
COc1ccc(-c2cc(C(=O)NCc3ccccc3)no2)cc1OC,i,>57
O=C(NCC(=O)N(Cc1cccs1)C(C(=O)NC1CCCC1)c1ccncc1)c1ccco1 (centres undefined),i,>57
CN(c1cccc(NC(=O)Cc2ccccc2)c1)S(C)(=O)=O,i,>57
CN(C)c1[nH]c(=O)c(C#N)c2c1CCN2Cc1ccccc1,i,>57
CCOc1ccccc1NC(=O)c1ccccc1-c1nc(-c2ccccc2)no1,i,>57
Cc1cc(C)nc(SCc2nnc(SCC(=O)Nc3cc(C(F)(F)F)ccc3Cl)o2)n1,i,>57
CC1Cc2ccccc2N1C(=O)c1ccc2c(c1)nnn2C (centres undefined),i,>57
Cc1nnc(SCC(=O)N2CCN(S(=O)(=O)c3ccc(Cl)cc3)CC2)[nH]c1=O,i,>57
COc1ccc(C2CC(c3ccccc3)Nc3ncnn32)cc1 (centres undefined),i,x
CCOC(=O)C1CCN(S(=O)(=O)c2ccc(-c3nc4ccccc4s3)s2)CC1,i,>57
Cc1ccc(-c2nc(-c3cccnc3)no2)c(C)c1,i,u
Cc1cc(=O)oc2ccc(OCC(=O)N3CCc4ccccc43)cc12,x,>11
Cc1ccc(C)c(Cn2c(=O)n(CCC(=O)NCc3ccco3)c(=O)c3ccccc32)c1,i,>57
O=C(c1ccc(Cl)c(Cl)c1)N1CCOCC1,i,i
Cc1ccc(-n2nc(-c3cccnc3)cc2C(=O)N2CCOCC2)c(C)c1,i,>57
O=C(c1cccc(COc2ccc(Cl)cc2Cl)c1)N1CCN(c2ccccn2)CC1,i,>57
Cn1c(NCC(O)c2ccccc2)nc2c1c(=O)n(Cc1ccc(Cl)cc1)c(=O)n2C (centres undefined),x,>26
CCOC(=O)c1ccc(-n2c(C)nc3c(cnn3-c3ccccc3C)c2=O)cc1,i,x
C=C1CC[C@H](O)C/C1=C/C=C1\CCC[C@]2(C)[C@H]1CC[C@H]2[C@@H](C)CCCC(C)C,i,x
COc1cc(OC)c(NC(=O)c2ccco2)cc1Cl,i,>57
COc1ccc(Cl)c(NC(=O)Cn2nnc(-c3ccccc3N)n2)c1,i,>57
O=C(O)Cc1cc(Cl)ccc1O,i,x
CCN1CCN(C(=O)c2cn(CCOC)c(=O)c3c2c2ccccc2n3C)CC1,i,>57

Shown with two lines to a compound: entries from further up
Results follow in this order: TsaE inh | PK Bst
Cc1cc(=O)oc2ccc(OCC(=O)N3CCc4ccccc43)cc12
→ x | >11
Cc1ccc(C)c(Cn2c(=O)n(CCC(=O)NCc3ccco3)c(=O)c3ccccc32)c1
→ i | >57
O=C(c1ccc(Cl)c(Cl)c1)N1CCOCC1
→ i | i
Cc1ccc(-n2nc(-c3cccnc3)cc2C(=O)N2CCOCC2)c(C)c1
→ i | >57

(next part)
compound,TsaE inh,PK Bst
Nc1cc(C(=O)O)ccc1Nc1ccc(F)c(F)c1,i,>57
CCCCCOc1ccc(C(=O)N(Cc2ccco2)C2CCS(=O)(=O)C2)cc1 (centres undefined),i,>57
O=C(Nc1ccc(NC(=O)C2CC2)cn1)c1ccccc1Cl,i,x
C[C@@H]1C(=O)O[C@@H]2C[C@]34[C@H]5C[C@@H](C(C)(C)C)[C@@]36[C@@H](OC(=O)[C@@H]6O)O[C@@]4(C(=O)O5)[C@@]12O,i,x
CCCS(=O)(=O)c1nc(S(=O)(=O)c2ccc(C)cc2)c(NCCCN2CCOCC2)s1,i,x
COc1cccc(NC(=O)Cn2nnc(-c3ccccc3N)n2)c1,i,>57
CCOc1ccccc1-n1c(SCC(=O)NC(C)CC)nnc1-c1ccoc1C (centres undefined),i,>57
N#CC1C(=O)NC(N2CCN(c3ccccc3)CC2)=NC12CCCCC2 (centres undefined),i,>57
COc1ccc(-c2nnc(SCC(=O)Nc3cccc(Cl)c3)o2)cc1,i,>57
Cc1nc2nc(-c3ccccc3)nn2c(C)c1Cl,i,>57
CC(C)(C)n1nc(C2CC2)cc1NC(=O)Nc1ccc(Cl)cc1,i,x
Cc1cc(S(=O)(=O)NCC(C)C)ccc1OCC(=O)N1CCOCC1,i,>57
Cc1csc(SCCn2c(N3CCCC3)nc3c2c(=O)[nH]c(=O)n3C)n1,i,>57
COc1ccc(-c2nc(CS(=O)CC(=O)N3CCCC3)c(C)o2)cc1 (centres undefined),i,x
O=C(NCc1ccccc1)c1ccc(OC2CSC2)cc1,i,>57
CCc1cc2c(=O)c(-c3ccc4c(c3)OCCO4)coc2cc1OC(=O)c1ccco1,i,i
C[C@@H]1O[C@H](O[C@@H]2[C@@H](Oc3cc(O)c4c(c3)O[C@H](c3ccc(O)cc3)CC4=O)O[C@@H](CO)[C@@H](O)[C@H]2O)[C@@H](O)[C@H](O)[C@@H]1O,i,x
CCOC(=O)CSC1=Nc2ccccc2C2=NC(CC(=O)NCc3ccccc3)C(=O)N12 (centres undefined),i,>57
CCOc1ccc(-c2nnc3sc(-c4ccccc4OC)nn23)cc1,x,>11
Cc1cc(C)n(CC(=O)n2c3ccccc3c3ccccc32)n1,i,x
COC(=O)c1cc(=O)n(C2CC2)c(=NC2CC2)s1,i,>57
CCCCNC(=O)c1ccc(CS(=O)(=O)c2ccc(OC)cc2)o1,i,x
O=C(CCc1nc2ccccc2[nH]1)Nc1ccccc1,i,>57
COC(=O)[C@@]1(Cc2ccc(OC)cc2)[C@H]2c3cc(C(=O)N4CCCC4)n(Cc4ccc(OC(F)(F)F)cc4)c3C[C@H]2CN1C(=O)c1ccccc1,i,x
CCCCSc1nnc([C@@H]2CCCN2C(=O)OC(C)(C)C)o1,i,>57

High-throughput results from PubChem.
